Compound activity as filed in PubChem BioAssay.
VDR inhibitor: inhibitors of human vitamin D receptor | P11473 | VDR-SRC2-3 peptide fluorescence polarization, 2 h | Potency, µM, for inactives: max response, negative = inhibition, hits mostly inhibitors | 400,000 tested, 0.93% active; active = well fitted inhibition curve with a large enough effect; inconclusive = small, poorly fitted or top-dose-only effect, or another doubt; inactive = no such curve, though single readings can be large or run the other way; also: series mostly up to about 120 µM
Target sequence (P11473 whole entry, looked up): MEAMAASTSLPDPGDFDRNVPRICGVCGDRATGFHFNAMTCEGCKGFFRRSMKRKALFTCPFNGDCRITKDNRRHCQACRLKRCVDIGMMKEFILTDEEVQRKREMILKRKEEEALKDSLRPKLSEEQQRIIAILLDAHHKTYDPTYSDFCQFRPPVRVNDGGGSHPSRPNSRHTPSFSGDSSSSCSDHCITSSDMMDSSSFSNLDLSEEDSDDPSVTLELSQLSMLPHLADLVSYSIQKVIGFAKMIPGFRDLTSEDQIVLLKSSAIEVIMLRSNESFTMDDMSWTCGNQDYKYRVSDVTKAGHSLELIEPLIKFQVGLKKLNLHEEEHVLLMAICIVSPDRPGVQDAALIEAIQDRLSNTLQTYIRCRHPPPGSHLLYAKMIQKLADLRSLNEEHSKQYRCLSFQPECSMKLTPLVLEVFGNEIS
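Measured by FP: displacement of SRC2-3 coactivator peptide from VDR by library compounds, following a two-hour ambient incubation.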
* = called active by the depositor; ? = inconclusive; & = joins results of further samples; [ ] = dose if it differs, or a comment. % is scaled to controls: 0 for no effect and ±100 for the full control effect; potency is read from the fitted curve at half-maximal effect. These rows are one share of the data (hit frequency here may not be typical).

VDR inhibitor,SMILES
7%,CC1(c2ccc3c(c2)OCO3)NC(=O)N(CC(=O)NCCC2=CCCCC2)C1=O (stereo not given)
12%,O=C(O)C(c1ccccc1)C(O)c1ccc2c(c1)OCO2 (stereo not given)
-3%,CC(C)Sc1ccccc1C(=O)Nc1ccc2c(c1)n(C)c(=O)n2C
-5%,O=[N+]([O-])c1ccc(CNc2cccc(Cl)c2)s1
-1%,O=C(NN=Cc1ccc2c(c1)OCO2)c1ccncc1
2%&8%,O=c1cc(-c2ccccc2Cl)oc2c(Br)ccc(O)c12
-4%,CCOC(=O)CN(C(=O)CNC(=O)c1ccco1)C(C(=O)NC1CCCCC1)c1cccs1 (stereo not given)
-7%,CCn1cc(C(=O)O)c(=O)c2cc(OC)ccc21
9%,Cc1ccc(C(=O)OCC(=O)NCCNC(=O)COC(=O)c2ccc(C)o2)o1
-2%,CCOc1ccccc1C(=O)Nc1ccc(S(=O)(=O)N2CCN(C)CC2)cc1
2%,Cc1ccc2c(c1)C1CN(C)CCC1N2C(=O)c1cccc(S(=O)(=O)N(C)C)c1 (stereo not given)
-9%,CCN(CC)CCn1c(-c2ccc(C)cc2)nc(=S)c2c1CC(C)(C)OC2
-7%,NS(=O)(=O)c1ccc(CCNC(=O)CSc2ncnc3ccccc23)cc1
-14%,COc1cccc(NC(=O)c2ccc(CN3CCN(c4ccccc4)CC3)cc2)c1
-6%,Fc1ccc(Nc2ccc3ccccc3n2)c(F)c1
-4%,CCn1c(SCC(=O)C(C)(C)C)nnc1-c1cccnc1
8%,CCN(CCCNC(=O)C1CCC(=O)N1Cc1ccc(F)cc1)c1cccc(C)c1 (stereo not given)
-27%,CCCNC(=O)c1ccc2c(=O)c(O)c(-c3cccc(Br)c3)[nH]c2c1
6%,CCCc1cc(=O)oc2cc(C)cc(OC(C)C(=O)NCC3CCC(C(=O)O)CC3)c12 (stereo not given)
?,O=C(/C=C/c1ccc(N2CCCCC2)c([N+](=O)[O-])c1)c1ccc(O)cc1
0%,CCOC(=O)c1ccc(NC(=S)NCCc2ccc(OC)c(OC)c2)cc1
-1%,COc1ccc(CN(CC(=O)NCc2ccc(F)cc2)C(=O)CCC(=O)Nc2cc(C)ccn2)cc1
-11%,CCCCn1ccnc1C(=O)c1cc(S(=O)(=O)N2CCOCC2)ccc1C
?,O=C(N/N=C/C(Br)=C\c1ccccc1)c1n[nH]c2c1CCC2
14%,O=C(Nc1ccc(S(=O)(=O)NC2=NCCCCC2)cc1)c1ccc(Cl)c([N+](=O)[O-])c1
-19%,Cc1ccccc1/C=N/n1c(C2CCCCC2)n[nH]c1=S
-3%,CC(=O)Nc1nnc(CSCc2ccccc2F)s1
14%,Cc1noc(C)c1S(=O)(=O)N(C)C[C@H]1Oc2c(NC(=O)Nc3ccccc3)cccc2C(=O)N([C@H](C)CO)C[C@@H]1C
35%[activator],NC(=O)c1nsc(C(=O)N(c2cccc(F)c2)C(C(=O)NCC2CCCO2)c2ccc3ncccc3c2)c1N (stereo not given)
7%,COc1ccccc1N1CC(C(=O)OCC(=O)Nc2cc(C)on2)CC1=O (stereo not given)
3%,c1ccc2[nH]c(CSc3nc4ccccc4o3)nc2c1
0%,Nc1ccccc1NC(=O)CCn1c(=S)[nH]c2ccccc2c1=O
1%,COc1ccccc1-c1nn2c(-c3ccco3)nnc2s1
0%,CCC1(CC)C(=O)NN(c2ccccc2)C1=O
1%,O=C(CN(Cc1ccccc1Cl)C(=O)c1csnn1)NCCc1ccccc1
-1%,NC(=O)c1ccc[n+](CC(=O)OCCC23CC4CC(CC(C4)C2)C3)c1

3 compounds picked at random from the list so far:
VDR inhibitor,SMILES
0%,Nc1ccccc1NC(=O)CCn1c(=S)[nH]c2ccccc2c1=O
7%,COc1ccccc1N1CC(C(=O)OCC(=O)Nc2cc(C)on2)CC1=O (stereo not given)
1%,O=C(CN(Cc1ccccc1Cl)C(=O)c1csnn1)NCCc1ccccc1

(more compounds)
VDR inhibitor,SMILES
-1%,Cc1c(CNCc2cccs2)c(C(=O)O)c(C)n1Cc1ccccc1
-10%,COc1cccc(OC)c1NC(=O)Cc1nn(C)c(=O)c2ccccc12
-13%,COc1cccc(CNC(=O)c2ccc(NC3=NC4CS(=O)(=O)CC4S3)cc2)c1 (stereo not given)
?,Cc1cccc(C)c1NC(=O)NN(C(=O)c1ccccc1)C(C)(C)C
-26%,Nc1ccc2c(c1)COC2=O
-6%,CCC(=O)Nc1ccc(C(=O)c2ccccc2)cc1
9%,CN(C)S(=O)(=O)c1ccc(Cl)c(C(=O)NNC(=O)c2ccc3c(c2)OCO3)c1
8%,CSCCC(NC(=O)c1ccccc1Br)C(=O)NNC(=O)c1csc(N2CCOCC2)n1 (stereo not given)
-21%,CCCCOc1ccc(C(=O)N(Cc2ccco2)Cc2ccco2)cc1
-15%,C=CCNC(=O)/C(C#N)=C/c1cn(-c2ccccc2)nc1-c1cccs1
-15%,CC1=CC(=C2C(=O)c3ccccc3C2=O)C=C(C)N1Cc1ccco1
-16%,CCN(C(=O)c1cn(C)c(=O)c2ccccc12)c1cccc(C)c1

3 entries from above, field by field:
COc1cccc(CNC(=O)c2ccc(NC3=NC4CS(=O)(=O)CC4S3)cc2)c1 (stereo not given)
  VDR inhibitor = -13%
C=CCNC(=O)/C(C#N)=C/c1cn(-c2ccccc2)nc1-c1cccs1
  VDR inhibitor = -15%
CSCCC(NC(=O)c1ccccc1Br)C(=O)NNC(=O)c1csc(N2CCOCC2)n1 (stereo not given)
  VDR inhibitor = 8%

Continued.
VDR inhibitor,SMILES
-16%,CN(CC(=O)Nc1cccc(F)c1)CC(=O)Nc1cccc(S(N)(=O)=O)c1
-4%,COc1cc(Cl)c(C)cc1NC(=O)c1ccccc1NC(=O)CN1CCOCC1
2%,Cc1ccc(OCC(=O)Nc2c[nH]c(=O)[nH]c2=O)cc1C
-5%,CCOc1ccccc1NC(=O)CCc1c(C)nc2c3cccnc3nn2c1C
-8%,Cc1cc(/C=C2\Cc3ccccc3C2=O)c(C)n1-c1ccccc1
-17%,COc1ccc(Nc2nc3ccccc3n2C)cc1
13%,COc1ccccc1-c1cc2nc(C)c(CCC(=O)NC(C)CCc3ccco3)c(C)n2n1 (stereo not given)
-19%,C/C(CC(=O)Nc1ccc(N(C)C)cc1)=N\NC(=O)c1ccncc1
-9%,O=C(O)C1Cc2ccccc2CN1S(=O)(=O)/C=C/c1ccccc1 (stereo not given)
3%,CCCOc1ccc(-c2nc(C#N)c(N3CCC(C(N)=O)CC3)o2)cc1
-17%,O=C(COc1ccccc1)NCC(c1ccco1)N1CCN(c2ccccc2F)CC1 (stereo not given)
-14%,Cc1nn(-c2ccccc2Cl)c(Cl)c1/C=N/Nc1nc2ccccc2s1
3%,CCc1c(C(=O)N2CCOCC2)csc1C
-13%,O=C(NCc1ccccc1)C(c1cccnc1)N(C(=O)c1ccccn1)c1ccccc1F (stereo not given)
-7%,Cn1c(SCc2ccccc2F)nc2ccccc2c1=O
14%,CCOc1ccc(C2CC(=O)NC(NC(=O)c3cccc(Cl)c3)=N2)cc1 (stereo not given)
-12%,COCCSc1nc2c(c(=O)[nH]c(=O)n2C)n1CCC(C)C
-7%,Cc1c(C(=O)c2ccc3c(c2)OCO3)ccc2c1OCO2
?,Cc1cccc(NC(=O)c2c(N)sc3c2CCC(C)C3)c1 (stereo not given)
23%,CCNc1nc(Oc2ccc(C#N)cc2)cc(C(F)(F)F)n1
19%,COc1cccc(NC(=O)CCc2nc(-c3ccc(C(C)(C)C)cc3)no2)c1
-5%,NC(=O)c1cccc(-c2noc(-c3ccccc3F)n2)c1
21%,COc1ccc(S(=O)(=O)N2CCC(C(=O)N[C@@H](C)C(=O)NCc3ccncc3)CC2)cc1
-5%,CC(C)(C)c1ccc(COn2ccnc2)cc1
-1%,O=C(CSc1ccccc1)Nc1cccnc1
7.9µM*,CC1=C(C)CS(=O)N(c2ccc(S(N)(=O)=O)cc2)C1 (stereo not given)
-13%,CCn1c(COc2ccc(C)cc2)nnc1SCC(=O)C(C)(C)C
-13%,Cn1c(=O)c2c(ncn2CC(=O)N/N=C/c2cn[nH]c2-c2ccc(F)cc2)n(C)c1=O
?,C/C(CCC(C)C)=N\Nc1cc(C)c2ccccc2n1
3%,COC(=O)c1ccc(OCC2c3cc(OC)c(OC)cc3CCN2C(C)=O)cc1 (stereo not given)
5%,Cc1ccc(S(=O)(=O)C(C#N)c2nc3ccccc3nc2N2CCCC2)cc1C (stereo not given)
-10%,Cc1c(Cl)cccc1NC(=O)CSCc1cc(=O)[nH][nH]1
6%,COC(=O)CSc1nnc(-c2cccnc2)n1-c1cccc(OC)c1
3%,CCCCCCCCNCCS(=O)(=O)NCCCCCCCC
-8%,O=C(NC(c1ccccc1)c1ccccc1)C1CCCC1
9%,Cc1onc(-c2ccccc2Cl)c1C(=O)N1CCC(C(N)=O)CC1
-2%,Cc1csc(SCc2nnc(-c3ccc(Cl)cc3)o2)n1
4%,Cc1ccc2nc(SCC(=O)Nc3ccc4[nH]c(=O)[nH]c4c3)[nH]c2c1
-17%,C[C@]12c3[nH]c4ccc(Cl)cc4c3CCN1C(=O)[C@@H](CC(=O)NCCN1CCOCC1)C[C@@H]2C(=O)N1CCOCC1
6%,Cc1ccc(C(=O)Nc2cccc(C(F)(F)F)c2)cc1NC(=O)c1csc(-c2ccncc2)n1
4%,CC(C)[C@H]1CC[C@@H](C)C[C@H]1O
4%,O=c1c2c3nc4ccccc4nc3n(CCN3CCOCC3)c2ncn1CCN1CCOCC1
-11%,O=C1CCN(C(=S)NCCc2ccccc2)CC1
-10%,COc1nccnc1NS(=O)(=O)c1ccc(NC(=S)NC(=O)c2ccccc2F)cc1
-12%,O=C(Nc1cccnc1)c1ccc(Cl)cc1[N+](=O)[O-]
-4%,COC(=O)CCCC1=CC2=CC(=O)C(C)(OC(=O)c3cnc4ccccc4n3)C(=O)C2=CO1 (stereo not given)
?,Cc1cc(C(=O)NNC(=O)Nc2cccc(C(F)(F)F)c2)no1
-4%,O=C1CNC(=O)c2c(nc3n2CCC3)N1
1%,CC(=O)OC1CCC2C3CCC4=C(CC(F)C(=O)C4)C3CCC12C (stereo not given)
75%[activator],C#CCOCCOCCOCCNc1nc(N2CCN(C(=O)CCCCCCCCCCNC(=O)[C@H]([C@@H](C)CC)n3cc(CCCCN=C(N)N)nn3)CC2)nc(N2CCN(C(=O)CCCCCCCCCCNC(=O)[C@H](CO)n3cc(CCCSC)nn3)CC2)n1
3%,COC(=O)c1cc2sccc2n1CC(=O)N1CCCc2ccccc21
-4%,CCN1CCN(c2ccc(S(=O)(=O)N3CCOCC3)cc2N)CC1
-17%,Cc1csc(N(C(=O)CCNC(=O)c2ccc([N+](=O)[O-])cc2)c2ccccc2)n1
2%,O=C1CC2(CCN1)CCN(Cc1ccccc1)CC2
7%,c1coc(-c2nnc(-c3cccs3)o2)c1
14%,Cc1ccc(S(=O)(=O)NNC(=S)Nc2cccc(C)c2C)cc1
16%,COc1ccc(-c2cc(OC(=O)c3ccc(F)cc3)c3c(C)oc(C)c3c(=O)c2)cc1OC
-8%,Cc1c(/C=C2\SC(=O)N(CC(=O)Nc3ccc4c(c3)OCO4)C2=O)c2ccccc2n1C
10%,O=C(O)c1ccc2c(c1)ncn2C1CCCCCC1
-2%,COc1cc(NC(=S)Nc2ccc(N(C)C(C)=O)cc2)cc(OC)c1

(listing goes on)
VDR inhibitor,SMILES
-17%,N/C(=N\OC(=O)c1ccc([N+](=O)[O-])cc1Cl)c1ccccn1
-1%,CCC(CC)C(=O)NC12CC3CC(CC(C3)C1)C2
-1%,Cc1ccc(NC(=S)Nc2ccc3cn[nH]c3c2)c(C)c1
11%,Cn1c(CSc2nc3ccccc3s2)nnc1SCC(=O)NCCN1CCOCC1
-17%&7%,Cc1ccc(C(=O)Cn2c3c(sc2=N)CCCC3)cc1
-1%,CC(c1ccccc1)C(CC(=O)O)C(=O)NC1CCCCC1 (stereo not given)
-13%,CCOC(=O)c1ccc(N2C(=O)c3n[nH]c(C)c3C2c2ccc(C(C)C)cc2)cc1 (stereo not given)
?,O=C1c2ccccc2-c2onc3ccc(NCc4ccco4)c1c23
-6%&-6%,COc1cccc(CNS(=O)(=O)c2cc3c(cc2C)n(C)c(=O)c(=O)n3C)c1
3%,CCNC(=S)N(CCc1c(C)[nH]c2ccc(OC)cc12)Cc1cccnc1
7%,COc1ccc(-c2cc3ccc(O)c(CN4CCCC4)c3oc2=O)cc1
2%,CSc1ncc(C(=O)N2CCN(c3cc(C)ccc3C)CC2)c(C)n1

By substructure, those above with bromine.
VDR inhibitor,SMILES
2%&8%,O=c1cc(-c2ccccc2Cl)oc2c(Br)ccc(O)c12
-27%,CCCNC(=O)c1ccc2c(=O)c(O)c(-c3cccc(Br)c3)[nH]c2c1
?,O=C(N/N=C/C(Br)=C\c1ccccc1)c1n[nH]c2c1CCC2
8%,CSCCC(NC(=O)c1ccccc1Br)C(=O)NNC(=O)c1csc(N2CCOCC2)n1 (stereo not given)

(more compounds)
VDR inhibitor,SMILES
-4%,C=CCNC(=O)Nc1ccc(F)c(Cl)c1
-10%,Cc1ccc(-c2nnc(Nc3ccc(OC(F)(F)Cl)cc3)c3ccccc23)cc1S(=O)(=O)NC(C)(C)CO
1%&-2%,Cc1ccc2c(c1)CC1(CN2C)C(=O)OC2(CCCCC2)OC1=O
-13%,O=C1/C(=N\S(=O)(=O)c2cccs2)C([n+]2cccc(Cc3ccccc3)c2)=C([O-])c2ccccc21
-3%&-1%,Clc1nccc2c1ccc1ccccc12
-5%,CCOCCCNC(=O)C(c1ccc(C)cc1)N(Cc1ccc2c(c1)OCO2)C(=O)c1ccc(NC(C)=O)cc1 (stereo not given)
-19%,COc1cc(CCC(=O)OCC(N)=O)cc(OC)c1OC
0%,CC(=O)c1c(C)[nH]c(C(=O)CSc2nc3ccccc3c(=O)n2CCCO)c1C
-1%,Cc1cccc(CNC(=O)c2ccc(Cn3c(=O)c4cccn4c4cccnc43)cc2)c1
